nsP2pro inh = CHIKV nsP2 protease inhibition, primary qHTS. Q8JUX6. FRET peptide cleavage, nsP2pro, fluorescence 1 h. Potency, µM (doses to about 24.9 µM), inactives show at the highest dose activity change, negative = inhibition, hits mostly inhibitors. actives 1.1% (n = 31,000). AID 1964107; active means well fitted inhibition curve with a large enough effect; inconclusive means small, poorly fitted or top-dose-only effect; inactive means no such curve, though single readings can be large or run the other way; also: nearly all actives have a fitted effect of over 60% in size; a reference inhibitor and vehicle were the controls
Target sequence (Q8JUX6 whole entry, looked up): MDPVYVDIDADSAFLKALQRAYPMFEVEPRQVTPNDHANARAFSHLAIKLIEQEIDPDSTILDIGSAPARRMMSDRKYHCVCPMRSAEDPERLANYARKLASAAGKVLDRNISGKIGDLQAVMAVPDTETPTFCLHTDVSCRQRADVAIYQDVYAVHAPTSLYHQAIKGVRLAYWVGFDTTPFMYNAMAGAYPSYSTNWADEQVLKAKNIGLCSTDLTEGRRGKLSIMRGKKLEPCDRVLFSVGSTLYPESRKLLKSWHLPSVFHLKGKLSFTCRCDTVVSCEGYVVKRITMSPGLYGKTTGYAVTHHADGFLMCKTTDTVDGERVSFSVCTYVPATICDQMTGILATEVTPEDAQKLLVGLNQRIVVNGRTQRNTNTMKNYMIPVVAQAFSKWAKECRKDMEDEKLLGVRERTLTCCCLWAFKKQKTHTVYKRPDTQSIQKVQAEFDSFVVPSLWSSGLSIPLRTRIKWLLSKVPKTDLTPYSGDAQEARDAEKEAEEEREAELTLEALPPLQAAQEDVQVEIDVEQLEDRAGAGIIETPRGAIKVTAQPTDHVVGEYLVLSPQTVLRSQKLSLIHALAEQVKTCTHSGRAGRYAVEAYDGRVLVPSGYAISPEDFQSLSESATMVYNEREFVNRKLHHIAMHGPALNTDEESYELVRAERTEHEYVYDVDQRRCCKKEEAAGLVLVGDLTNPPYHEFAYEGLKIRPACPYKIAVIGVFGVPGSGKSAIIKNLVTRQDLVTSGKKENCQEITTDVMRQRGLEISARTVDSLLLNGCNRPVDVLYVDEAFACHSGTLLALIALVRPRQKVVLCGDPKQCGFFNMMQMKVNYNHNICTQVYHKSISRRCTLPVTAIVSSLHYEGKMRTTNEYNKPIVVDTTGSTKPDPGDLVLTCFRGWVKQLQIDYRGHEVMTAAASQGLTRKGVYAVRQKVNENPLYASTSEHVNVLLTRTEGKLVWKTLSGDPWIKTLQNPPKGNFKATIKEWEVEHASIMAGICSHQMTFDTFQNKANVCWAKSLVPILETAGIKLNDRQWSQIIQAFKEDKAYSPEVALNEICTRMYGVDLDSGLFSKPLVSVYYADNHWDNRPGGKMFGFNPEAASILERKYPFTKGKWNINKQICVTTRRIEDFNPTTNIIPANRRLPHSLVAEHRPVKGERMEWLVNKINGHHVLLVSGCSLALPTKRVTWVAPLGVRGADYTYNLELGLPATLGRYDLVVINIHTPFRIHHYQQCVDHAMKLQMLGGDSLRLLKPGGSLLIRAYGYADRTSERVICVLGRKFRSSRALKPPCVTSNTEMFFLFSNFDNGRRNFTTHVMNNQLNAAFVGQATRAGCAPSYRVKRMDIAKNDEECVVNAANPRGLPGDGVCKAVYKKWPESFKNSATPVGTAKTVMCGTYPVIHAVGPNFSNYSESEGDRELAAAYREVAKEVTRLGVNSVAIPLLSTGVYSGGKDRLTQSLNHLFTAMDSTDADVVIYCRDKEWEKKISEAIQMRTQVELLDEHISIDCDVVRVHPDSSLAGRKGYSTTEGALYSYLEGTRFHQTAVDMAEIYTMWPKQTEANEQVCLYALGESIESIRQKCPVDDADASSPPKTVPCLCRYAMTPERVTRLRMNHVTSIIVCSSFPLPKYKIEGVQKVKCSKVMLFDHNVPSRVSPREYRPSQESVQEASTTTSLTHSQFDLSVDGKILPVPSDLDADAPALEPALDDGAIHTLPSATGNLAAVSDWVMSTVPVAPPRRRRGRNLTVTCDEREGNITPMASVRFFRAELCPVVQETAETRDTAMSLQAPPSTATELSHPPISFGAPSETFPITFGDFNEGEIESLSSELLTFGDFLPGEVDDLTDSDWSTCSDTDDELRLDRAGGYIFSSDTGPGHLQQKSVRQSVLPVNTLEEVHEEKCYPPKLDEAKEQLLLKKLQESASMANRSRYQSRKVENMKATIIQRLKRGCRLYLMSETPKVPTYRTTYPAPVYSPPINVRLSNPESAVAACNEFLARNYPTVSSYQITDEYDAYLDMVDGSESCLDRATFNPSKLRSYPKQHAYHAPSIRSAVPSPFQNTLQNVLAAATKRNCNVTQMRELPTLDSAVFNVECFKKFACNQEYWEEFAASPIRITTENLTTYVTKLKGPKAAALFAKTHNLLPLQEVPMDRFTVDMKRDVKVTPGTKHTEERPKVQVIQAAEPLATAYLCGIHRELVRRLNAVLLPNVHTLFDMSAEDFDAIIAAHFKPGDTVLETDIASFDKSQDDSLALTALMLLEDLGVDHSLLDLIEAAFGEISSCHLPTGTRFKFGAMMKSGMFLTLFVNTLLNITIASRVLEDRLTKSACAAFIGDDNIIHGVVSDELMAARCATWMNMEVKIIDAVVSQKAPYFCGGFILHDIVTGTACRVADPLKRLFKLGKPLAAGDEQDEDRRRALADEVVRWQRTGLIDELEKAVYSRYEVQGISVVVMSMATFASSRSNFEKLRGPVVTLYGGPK
* = called active by the depositor; i = inactive; ? = inconclusive; [ ] = another dose, or the depositor's remark. % is scaled to controls: 0 for no effect and ±100 for the full control effect; potency is read from the fitted curve at half-maximal effect. Some of the compounds tested. The share of hits here may be higher or lower than overall.

SMILES	nsP2pro inh
COC(=O)c1nnn(CC(=O)NC(=O)Nc2c(C)cccc2C)c1C(=O)OC	-12.2%
CCCOc1ccc(S(=O)(=O)N2CCN(CCO)CC2)cc1-c1nc2c(CCC)cn(CC)c2c(=O)[nH]1	-1.0%
COc1ccc(S(=O)(=O)N2C[C@@H]3C[C@H](C2)c2ccc(NC(=O)c4ccc(C#N)cc4)c(=O)n2C3)cc1	2.3%
NC(=O)NCC(=O)N1CC[C@@H]2[C@@H](CCC(=O)N2CCc2ccccn2)C1	3.9%
COc1ccc(NC(=O)/C=C\C(=O)N(c2ccc(C(C)C)cc2)C(C(=O)NCc2ccco2)c2ccc(F)cc2)cc1 (stereo unspecified)	-19.2%
O=C(c1nc2ncccn2n1)N1CCCn2cc(-c3ccccc3)nc21	2.5%
Cn1c(=O)c(=O)n(C)c2cc(N3CCOCC3)c(NS(=O)(=O)c3ccc(F)c(Cl)c3)cc21	-19.8%
FC(F)(F)c1cc(N2CCN(C(=S)Nc3cc(Cl)ccn3)CC2)cc(C(F)(F)F)c1	i
CNCCN1C(=O)CC[C@H]2CN(C(=O)COc3cccnc3)CC[C@H]21	-15.0%
CC(C)(C)NC(=O)N1CCC(C(=O)O)CC1	-7.0%
COCC(=O)N1CCN(C(=O)CSCC(=O)O)C[C@H]1C(=O)N[C@H]1CCCNC1=O	i
Cc1ccc(NC(=O)c2cnc(SCC(=O)N3CCCc4ccccc43)n(C)c2=O)cc1	-14.0%
O=C(OCC#CCSc1nnc(-c2ccc3ccccc3c2)o1)c1ccc(OC(F)(F)F)cc1	-14.4%
COc1ccc(OC)c(C2=Nn3c(nnc3-c3cc(OC)ccc3OC)SC2)c1	-3.2%
CC(=O)OC1CC(O)C(C)(C)C2CC(OC(C)=O)C3(C)C(CCC4(C)C(c5ccoc5)C(=O)C5OC543)C12C (stereo unspecified)	-27.0%[10 µM]
N#Cc1ccc(O[C@@H]2COCC[C@H]2NC(=O)Cn2nnnc2N)cc1	1.7%
COc1ccc(N2CCN(c3oc(-c4ccc(COc5cccc(C)c5)o4)nc3C#N)CC2)cc1	-13.8%
Nc1c(C(=O)c2ccc(F)cc2)sc(Nc2ccccc2F)c1S(=O)(=O)c1ccc(Br)cc1	-5.8%
COc1cc(/C=C(/C#N)c2nc(-c3cc4ccccc4oc3=O)cs2)ccc1O	-6.8%
Cc1cc(NC(=O)Nc2nnc(N(C)C3CCCCC3)s2)ccc1Br	-12.6%

Grouped by structure, those above with a CF3 group (2)
SMILES	nsP2pro inh
FC(F)(F)c1cc(N2CCN(C(=S)Nc3cc(Cl)ccn3)CC2)cc(C(F)(F)F)c1	i
O=C(OCC#CCSc1nnc(-c2ccc3ccccc3c2)o1)c1ccc(OC(F)(F)F)cc1	-14.4%

(further entries)
SMILES	nsP2pro inh
CCn1c(=N)c(C(=O)NCc2cccnc2)cc2c(=O)n3cc(C)ccc3nc21	-18.1%
CN(c1ccccc1)S(=O)(=O)c1nnc(NC(=O)c2cccs2)s1	-18.5%
COc1cccc(CNC(=O)C2CN(c3ccc(F)cc3)C(=O)N2)c1 (stereo unspecified)	i
CN(Cc1nc(-c2ccccc2)no1)C(=O)c1cccc(C2CCNC2)c1 (stereo unspecified)	4.9%
COc1ccc(-c2ccc(=O)n(CC(=O)NCCc3ccccc3)n2)cc1OC	-0.7%
COCCN1Cc2nc(NCc3ccccc3)ccc2OCC1=O	?
CC(=O)CC(=O)Nc1ccc(Cl)c(C(F)(F)F)c1	4.7%
Cc1oc2c(cc(NS(=O)(=O)c3ccc(C(C)C)cc3)c3ccccc32)c1C(=O)OCc1ccccc1	-21.3%
COc1ccc(NC(=O)c2ccc3oc(=O)c(S(=O)(=O)c4ccc(F)cc4)cc3c2)c(OC)c1	-12.5%
CCCNC(=O)N[C@@H]1C=C(C(=O)N[C@H](CC(C)C)C(N)=O)C[C@@H](O)[C@@H]1O	i
COc1cccc(-c2ccc3c(n2)CNC(=O)CO3)c1	-2.0%[39.2 µM]
CC(C[N+](C)(C)C)OC(N)=O (stereo unspecified)	-4.7%
O=C(O)c1ccccc1S	0.1%
COc1cc2ncnc(Nc3ccc(F)c(Cl)c3)c2cc1O	76.2%[activator]
CCOc1ccc(-c2cc3c(=O)n(CCNC(=O)c4cnccn4)ccn3n2)cc1	-1.5%
O=C(Nc1ccc2n(c1=O)C[C@H]1C[C@@H]2CN(c2ncccn2)C1)c1ccccc1	?
COC(=O)c1cc2c(cc1NC(=O)c1cnn(-c3ccccc3)c1-n1cccc1)OCO2	0.5%
N#Cc1cccc(NC(=O)c2ccc3c(c2)N(Cc2cccc(Cl)c2)C(=O)c2ccccc2S3(=O)=O)c1	?
CSCC(=O)Nc1ccc2n(c1=O)C[C@H]1C[C@@H]2CN(C(=O)CSCC(=O)O)C1	-15.4%[39.2 µM]
CO[C@@H]1[C@@H](OC2OC(C)C(OC3CC(C)(O)C(OC(=O)CC(C)C)C(C)O3)C(N(C)C)C2O)[C@@H](CC=O)C[C@@H](C)C(=O)/C=C\C2O[C@H]2C[C@@H](C)OC(=O)C[C@H]1OC(C)=O (stereo partly specified)	-9.0%
Cc1ccc(NS(=O)(=O)c2ccc3c(c2)NC(=O)CO3)cc1C	-0.1%
CCOc1ccc(N(Cc2ccccc2)C(=O)c2nc(SC)ncc2Cl)cc1	5.5%
COC(=O)C[C@H]1CN(C(=O)OC(C)(C)C)CCN1	-5.9%[39.2 µM]
N#CC1=C(Nc2nc3ccccc3o2)OC2=C(C(=O)CCC2)C1c1[nH]ncc1Cl (stereo unspecified)	i
CCc1ccccc1NC(=O)CSc1nnc(-c2ccc(OC)cc2)s1	-15.0%
Cc1cn([C@H]2C[C@H](N[S+](=O)([O-])c3ccc4c(c3)OCCO4)[C@@H](CO)O2)c(=O)[nH]c1=O	0.0%
Cc1csc2nc(-c3ccc(NS(=O)(=O)c4cc(F)ccc4F)cc3)cn12	1.8%
O=C(O)CCCCCC[C@H]1C(=O)NC(=O)N1CC[C@@H](O)C1CCCCC1	-12.1%
O=C(NCCc1nc2ccccc2[nH]1)C1CCCCC1	-9.4%
CCOc1ccc(CNC(=O)c2oc3c(c2C)-c2nn(Cc4cccc(Cl)c4)cc2CC3)cc1	?
CCCC(CCC)C(=O)O	?
Cc1cccc(CC(=O)N2CCCn3cc(-c4cccc(C#N)c4)nc32)c1	i
O=C(C1CCC(CNS(=O)(=O)c2cccs2)CC1)N1CCN(c2ccc(Cl)cc2)CC1 (stereo unspecified)	-27.0%
CCCC(CCC)C(=O)NC1CC(=O)N(c2ccc3c(c2)OCCO3)C1 (stereo unspecified)	-14.2%
CCN1CCN(CCNC(=O)CN2CCCc3nc(C4CC4)ncc3C2=O)CC1	?
O=C(Nc1ccccc1C(F)(F)F)c1ncoc1-c1ccco1	-21.6%
CN(C)[C@@H]1C(=O)C(C(=O)NCN2CCCC2)=C(O)[C@@]2(O)C(=O)C3=C(O)c4c(O)cccc4[C@@](C)(O)C3C[C@@H]12 (stereo partly specified)	12.3%
COc1ccc(C2Nc3ccccc3C(=O)N2CCCN(C)C)cc1COc1ccc(NC(C)=O)cc1 (stereo unspecified)	-24.9%
CC1CCc2c(sc(NC(=O)C3c4ccccc4Oc4ccccc43)c2C#N)C1 (stereo unspecified)	-14.1%
Cn1cc(CN2CCOc3cc([S+](=O)([O-])Nc4ccccc4)ccc3C2)cn1	i
C#Cc1cccc(Nc2nc3cc(C(=O)O)ccc3c3cncnc23)c1	171.1%[activator]
Cc1ccn2c(c1)nc(=O)c1cc(S(=O)(=O)N3CCCCC3)c(Cl)cc12	-22.4%
Cc1cccc(N(C)C(=O)Cc2c(C(=O)O)[nH]c3ccccc23)c1	-21.0%
CN(CCc1ccccn1)c1ncccc1CNC(=O)C1CCc2ccccc21 (stereo unspecified)	i
Cc1ccc(NC(=O)N2CCC(CN3CCCCC3)CC2)c(Cl)c1	-24.5%
COc1ccc(O[C@H]2COCCN(S(=O)(=O)c3ccc(OC)cc3)C2)cc1	3.5%[39.2 µM]
CCC(OC(=O)c1ccc(S(C)(=O)=O)c([N+](=O)[O-])c1)C(=O)NC1C2CC3CC(C2)CC1C3 (stereo unspecified)	0.7%
CCN1C[C@@]2(COC)C3[C@@H](OC)C4[C@@H]1[C@@]3(C1C[C@]3(O)[C@H](OC(=O)c5ccccc5)C1[C@]4(OC(C)=O)[C@@H](O)[C@@H]3OC)[C@@H](OC)C[C@H]2O (stereo partly specified)	1.0%
COc1ccc2c(Sc3ccccc3)c(C(=O)NCCc3ccc(Cl)cc3)[nH]c2c1	-18.5%
CC(C)Oc1ccc(CNC(=O)c2ccc3c(c2)N(Cc2ccc(F)cc2)CCS3)cc1	-19.3%
CC(C)(C)OC(=O)NC1CCN(c2nc(-c3ccc(Br)cc3)cs2)CC1	2.5%
COc1cccc(N2C(=O)NC(=NC3CCCC3)C23CCCN(C(=O)c2ccc(C)cc2)C3)c1 (stereo unspecified)	i
COc1ccc(OC)c(CNC(=O)Cn2nc(C)c3nn(-c4ccc(Cl)cc4)c(C)c3c2=O)c1	-15.2%
Cn1c(=O)c2sccc2n2c(CCCC(=O)Nc3ccc(Oc4ccc(Cl)cc4)cc3)nnc12	-16.8%
CCCc1ccc(OC(=O)CSc2nnc(-c3cccs3)o2)cc1	-31.9%
O=C(OCC#CCSc1nnc(-c2ccc3ccccc3c2)o1)c1ccc(F)cc1	-7.3%
COc1ccccc1CC(=O)Nc1cccn2nc(C(C)C)nc12	-10.9%
Cc1ccccc1C(=O)n1ccc2cc(-c3nc(NC(=O)Cc4ccc5c(c4)OCO5)sc3C)ccc21	-8.0%
O=C(NCCc1csc(-c2cccc(F)c2)n1)c1ccc(Br)o1	-12.6%
COC(=O)c1ccc2c(=O)n(CCCCCC(=O)N3CCN(c4cc(Cl)ccc4C)CC3)c(=O)[nH]c2c1	-15.1%

Sorted by length of the SMILES (smallest number first): 7 of the compounds above
SMILES	nsP2pro inh
COc1ccccc1CC(=O)Nc1cccn2nc(C(C)C)nc12	-10.9%
Cc1ccc(NC(=O)N2CCC(CN3CCCCC3)CC2)c(Cl)c1	-24.5%
Cc1ccn2c(c1)nc(=O)c1cc(S(=O)(=O)N3CCCCC3)c(Cl)cc12	-22.4%
COc1ccc2c(Sc3ccccc3)c(C(=O)NCCc3ccc(Cl)cc3)[nH]c2c1	-18.5%
Cn1c(=O)c2sccc2n2c(CCCC(=O)Nc3ccc(Oc4ccc(Cl)cc4)cc3)nnc12	-16.8%
COc1cccc(N2C(=O)NC(=NC3CCCC3)C23CCCN(C(=O)c2ccc(C)cc2)C3)c1 (stereo unspecified)	i
CCC(OC(=O)c1ccc(S(C)(=O)=O)c([N+](=O)[O-])c1)C(=O)NC1C2CC3CC(C2)CC1C3 (stereo unspecified)	0.7%

New compounds follow:
SMILES	nsP2pro inh
Cc1oc(C(O)c2ccccc2)nc1C(=O)Nc1ccncc1 (stereo unspecified)	3.7%[39.2 µM]
O=C(O)CCc1ccc(-c2cccs2)n1CC(=O)Nc1ccccc1C(F)(F)F	10.4%
Cc1c(P(=S)(c2ccccc2)c2ccccc2)[n+]2ccccc2n1CCc1ccccc1	4.5%
C=C1CC[C@H]2[C@@](C)(CCC(O)[C@@]2(C)CO)[C@@H]1/C=C/C(=C\C(=O)O)C(=O)O (stereo partly specified)	18.2%
O=C(c1sccc1Cl)N1CCn2nc(C(O)c3ccccc3)cc2C1 (stereo unspecified)	4.5%
c1ccc(CCN(Cc2ccccc2)[C@H]2C[C@H]3CCOC[C@@]3(c3ccccc3)C2)cc1	4.8%
CN(C)c1ccc(NC(=O)CSC2=Nc3ccccc3C3=NC(CC(=O)NCc4ccc5c(c4)OCO5)C(=O)N23)cc1 (stereo unspecified)	-30.4%
C=C(C)C(=O)O[C@H]1[C@H]2C(=C)C(=O)O[C@@H]2C[C@@H](C)[C@@H]2O[C@@H]2C(=O)[C@](C)(O)[C@@H]1OC(C)=O	-8.8%[10 µM]
NCCCC(=O)O	?
COc1cc(OC)c(C(=O)/C=C/c2ccccc2)c2c1C=CC(C)(C)O2	-13.0%
COc1ccc(S(=O)(=O)c2c(O)c(C)cc(NC(=O)c3ccccc3)c2C(C)C)cc1	-6.1%
O=C1NC(Cc2c[nH]c3ccccc23)C(=O)NC1Cc1cnc[nH]1 (stereo unspecified)	-2.4%
Cc1ccn2c(c1)nc(=O)c1cc(S(=O)(=O)N3CCC(C)CC3)c(Cl)cc12	-21.6%
COc1ccc(CC(=O)NCC(c2ccc(Cl)cc2)N2CCOCC2)cc1 (stereo unspecified)	-19.6%
CN(C)c1ccccc1-c1csc(N2CCC(C(N)=O)CC2)n1	4.3%
Cc1noc([C@@H]2CN(C(=O)c3cc(C4CC4)[nH]n3)C[C@H]2C(N)=O)n1	-13.7%
COCCC1(NC(=O)c2ccccc2)CCN(C(=O)c2ocnc2C)CC1	3.5%
Cc1cccc(-c2noc(-c3ccc(NCc4ccco4)c([N+](=O)[O-])c3)n2)c1	-15.5%
COC(=O)c1ccc(NC(=O)c2c(NCc3ccc(OC)c(OC)c3)sc3c2CCCC3)cc1	?
C[C@@H]1C[C@H](O[C@@H]2O[C@H](CO[C@@H]3OC[C@](O)(CO)[C@H]3O)[C@@H](O)[C@H](O)[C@H]2O)CC(C)(C)[C@H]1/C=C/[C@@H](C)O	3.1%[10 µM]
COc1ccc(C)c2sc(N(Cc3cccnc3)C(C)=O)nc12	-11.8%
O=c1c2nncn2ccn1-c1ccc(F)c(F)c1	-6.2%
Cc1[nH]c(/C=C2\C(=O)Nc3cc(-c4ccccc4)ccc32)c(C)c1CCC(=O)O	159.7%[activator]
O=C(Cc1cccs1)NC1CC(c2cc(N3CCC(O)C3)ncn2)C1 (stereo unspecified)	-3.0%
Cc1ccc(C)c(N2CCN(c3nccn4nc(-c5ccc(Br)cc5)cc34)CC2)c1	-17.8%
C=CC(C)(C)C12Nc3c(ccc4c3OC(C)(C)C=C4)C1(O)CC1C(=O)N3CCCC3C(=O)N12 (stereo unspecified)	?
